Screens deposited in PubChem by National Center for Advancing Translational Sciences (NCATS).
TRPML1 ag: qHTS for Agonists of the Human Mucolipin Transient Receptor Potential 1 (TRPML1). Mucolipin-1 (Homo sapiens), Q9GZU1. AID 624414, 2012. 0.12% of 410,000 active. activation, % (test concentration not listed). TRPML1-expressing cells, Ca2+ dye fluorescence, FDSS; host cell line not named in the record; reference of the full effect not given here; in the data active = activation above about 50%; inconclusive = about 30% to 50%; inactive = below about 30%; note: 0% is about no effect; the text of the record puts the active cut at 80%
Target sequence (Q9GZU1 whole entry, looked up): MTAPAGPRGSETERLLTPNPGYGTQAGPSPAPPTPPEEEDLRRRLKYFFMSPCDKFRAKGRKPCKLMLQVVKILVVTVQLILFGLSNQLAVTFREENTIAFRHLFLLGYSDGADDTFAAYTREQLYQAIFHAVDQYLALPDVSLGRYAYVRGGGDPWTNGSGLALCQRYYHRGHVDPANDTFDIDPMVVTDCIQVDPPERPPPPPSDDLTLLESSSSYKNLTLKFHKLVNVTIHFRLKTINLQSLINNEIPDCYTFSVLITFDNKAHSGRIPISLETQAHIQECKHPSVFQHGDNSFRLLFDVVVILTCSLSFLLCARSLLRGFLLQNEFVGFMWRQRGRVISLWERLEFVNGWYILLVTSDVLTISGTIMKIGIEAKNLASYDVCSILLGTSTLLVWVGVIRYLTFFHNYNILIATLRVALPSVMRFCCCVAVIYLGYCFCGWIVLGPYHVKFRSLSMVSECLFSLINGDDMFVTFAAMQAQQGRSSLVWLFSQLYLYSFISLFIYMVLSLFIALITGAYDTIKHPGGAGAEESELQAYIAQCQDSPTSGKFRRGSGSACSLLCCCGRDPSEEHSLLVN
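In this qHTS format, compounds were pin-transferred onto Ca8-dye-loaded TRPML1-DL cells induced with Tet overnight, and intracellular Ca2+ fluorescence was recorded kinetically for 110 s after a 10 s baseline. A subsequent 4uM final 54-4 (EC80) addition followed by a second 110 s read served as the antagonist phase.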
Six1-Eya2 inh: qHTS Assay for Inhibitors of the Six1/Eya2 Interaction | activity change, % (no concentration beside the values) | AlphaScreen GST-Six1/His-Eya2 binding, biochemical; stronger effect = lower value; control for the full effect not named in the record | Homeobox protein SIX1 (Homo sapiens) + Protein phosphatase EYA2 (Homo sapiens), … | AID 651725, 2012 | 0.56% of 360,000 active; in the data active = activity change below about -65%; inconclusive = about -30% to -65%; inactive = above about -30%; note: % is set by controls: 0 for no effect and ±100 for the full control effect; compound concentration not given in the record
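Six1/Eya2 binding was read as AlphaScreen signal after compounds were pinned into GST-Six1 plus His-tagged Eya2 (5X stock 250/500 nM) in pH 8.0 Tris/NaCl/TCEP buffer, beads added, then incubated 1 h, 37 C, dark.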
CtBP-E1A blk: qHTS Assay for Inhibitors of the CtBP/E1A Interaction. AlphaScreen GST-E1A/His-CtBP binding, 1536-well; stronger effect = lower value; control for the full effect not named in the record. CtBP / adenovirus E1A interaction (AlphaScreen). 0.49% of 340,000 active. activity change, % (test concentration not listed). AID 651724, 2012; in the data active means activity change below about -65%; inconclusive means about -30% to -65%; inactive means above about -30%; note: % is set by controls: 0 for no effect and ±100 for the full control effect; compound concentration not given in the record
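In 5 uL wells, 23 nL compound meets equimolar GST-E1A and His-CtBP (5X stock 125 nM each) for 2 h, 37 °C. Beads (5X, 50 ug/mL) then 1 h, 37 °C, dark.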
TRPML1 blocker: qHTS for Inhibitors of the Human Mucolipin Transient Receptor Potential 1 (TRPML1); Mucolipin-1 (Homo sapiens), Q9GZU1; TRPML1-inducible cells, Ca2+ dye fluorescence, FDSS; stronger effect = lower value; inhibition of EC80 agonist-evoked calcium signal; activity change, negative = inhibition, % (test concentration not listed); 0.02% of 390,000 active; AID 624415, 2012; in the data active means activity change below about -50%; inconclusive means about -30% to -50%; inactive means above about -30%;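 note: stimulus is agonist 54-4 at its EC80 concentration; % is set by controls: 0 for no effect and ±100 for the full control effect; compound concentration not given in the record; the text of the record puts the active cut at -80%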
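Calcium fluorescence in TRPML1-DL cells induced overnight with Tet: a 110 s read after compound pin addition, then a 110 s antagonist read after challenge with 54-4 at 4 uM final (EC80).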
TRPV1 PAM: HTS Assay for Compounds that Act as Potentiators of the Vanilloid Receptor 1 | potentiation, % at 8.33 µM | Transient receptor potential cation channel subfamily V member 1 (Homo sapiens), Q8NER1 | 0.02% of 320,000 active | TRPV1-expressing cells, Fluo-8 calcium influx, capsaicin EC20 potentiation; host cell line not named in the record; control for the full effect not named in the record; active means potentiation above 80%; inconclusive means 30% to 80%; inactive means below 30%; note: 0% is about no effect
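Fluo-8 calcium influx in TRPV1-expressing cells, kinetic read (ex 480/em 520 nm). Compound added and read 3 min for agonist activity, followed by capsaicin at EC20 final and 2 min further read for enhancement.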
D2 potentiator: Beta-Arrestin HTS for Positive Allosteric Modulators of the Human D2 Dopamine Receptor: Potentiators; potentiation, % (test concentration not listed); 0.23% of 360,000 active; DiscoveRx D2 beta-arrestin cells, luminescence, 90 min; 100% = 57 uM dopamine signal; D(2) dopamine receptor (Homo sapiens), P14416; AID 624464, 2012; active = potentiation of 50% or more; inconclusive = 30% to 50%; inactive = 30% or less;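 note: compound concentration not given in the record; tested on top of an EC20 dose of dopamine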
Target sequence (P14416 whole entry, looked up): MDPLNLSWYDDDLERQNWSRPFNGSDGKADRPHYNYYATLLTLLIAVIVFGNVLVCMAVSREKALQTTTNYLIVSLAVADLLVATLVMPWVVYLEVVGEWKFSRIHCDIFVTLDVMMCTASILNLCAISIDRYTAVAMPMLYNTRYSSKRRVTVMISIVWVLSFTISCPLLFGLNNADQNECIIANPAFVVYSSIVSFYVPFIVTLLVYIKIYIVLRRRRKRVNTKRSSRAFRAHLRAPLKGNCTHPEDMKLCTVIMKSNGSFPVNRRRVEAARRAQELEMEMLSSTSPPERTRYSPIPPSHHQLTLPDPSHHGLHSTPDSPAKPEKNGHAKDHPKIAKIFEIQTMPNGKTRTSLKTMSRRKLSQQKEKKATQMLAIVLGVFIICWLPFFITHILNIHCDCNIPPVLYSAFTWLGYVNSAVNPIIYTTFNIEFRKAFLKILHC
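D2 cells co-treated with compound plus 50 nM dopamine (EC20) for 90 min at 37 deg C to detect potentiation. Beta-arrestin recruitment was read as enzyme-fragment luminescence after 1 h at ambient temperature. Full response was set by 57 uM dopamine.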
Starred values were filed as active, the others as inactive; ? = inconclusive; · = no result given.

Every second line gives: CtBP-E1A blk | D2 potentiator | TRPML1 ag | TRPML1 blocker | Six1-Eya2 inh | TRPV1 PAM
Cc1cc(C(O)c2ncc(-c3ccccc3C)[nH]2)ccc1F (stereo not drawn)
 : -6 | -18 | -1.2 | · | -7 | ·
Cc1ccc(S(=O)(=O)N2C[C@@H]3[C@H]4CC[C@H](C4)[C@@H]3[C@@H](C)[C@@H]2c2ccn([Si](C(C)C)(C(C)C)C(C)C)c2)cc1
 : 3 | -7 | 8.5 | 12 | 3 | ·
O=C(CCCc1ccccc1)N1CCN(c2ccc([N+](=O)[O-])cc2)CC1
 : -13 | -6 | 0.6 | 23 | -20 | 5
CC[C@]12c3[nH]c4ccc(Cl)cc4c3CCN1C(=O)[C@@H](CC(=O)NC/C=C(\C)CCC=C(C)C)C[C@@H]2C(=O)N1CCN(C(=O)c2ccco2)CC1
 : -10 | · | 0.4 | -3 | -15 | ·
COc1ccc(NC(=O)C2(C)CCN2Cc2cccc(OC)c2F)cc1OC (stereo not drawn)
 : -9 | 6 | -0.7 | · | -10 | ·
COc1ccc(/C=C/C(=O)OCC(=O)NC2CCCCC2C)c(OC)c1 (stereo not drawn)
 : 7 | -10 | -0.1 | 3 | -3 | -12
Nc1nc(Sc2ccc(C(F)(F)F)cc2[N+](=O)[O-])n[nH]1
 : 0 | -8 | 3.8 | -9 | -3 | -9
Cc1ccc(C)c(NC(=O)CN(C)C(=O)c2cccc(S(=O)(=O)N3CCN(Cc4ccccc4)CC3)c2)c1
 : 1 | -9 | 0.5 | -7 | -11 | 1
CC[C@H](C)[C@H](NC(N)=O)C(=O)NCCc1ccc(Cl)cc1
 : 19 | 14 | 0.5 | 1 | 24 | 16
Cc1ccc(N(C(C)C(=O)Nc2ccccc2C(=O)N2CCOCC2)S(C)(=O)=O)cc1C (stereo not drawn)
 : 0 | -8 | 0.5 | 1 | 0 | 0
Cc1ccccc1NC(=S)N(CCc1c(C)[nH]c2ccc(F)cc12)Cc1ccncc1
 : -2 | 17 | 0.5 | 1 | -19 | 18
CCOC(=O)c1cc(OC(=O)c2cccc([N+](=O)[O-])c2)n(-c2ccccc2)n1
 : 8 | -7 | 0.3 | -15 | 2 | 0
Cc1ccc(-n2c(SCC(=O)c3c(N)n(C4CC4)c(=O)[nH]c3=O)nnc2N2CCOCC2)cc1
 : 4 | 1 | 0.5 | -10 | 8 | 0
COc1ccc(C(=O)NCC(c2ccc3c(c2)OCO3)N2CCN(c3ccc(OC)cc3)CC2)cc1 (stereo not drawn)
 : -7 | -12 | 0.1 | -10 | ? | -1
CC1CCCC(C)N1S(=O)(=O)c1ccc(S(=O)(=O)NCCc2ccncc2)cc1 (stereo not drawn)
 : 5 | -6 | 1.3 | 6 | 3 | 7

(further entries)
Every second line gives: CtBP-E1A blk | D2 potentiator | TRPML1 ag | TRPML1 blocker | Six1-Eya2 inh | TRPV1 PAM
COc1ccc(/C=N/N2CCOCC2)cc1COc1ccc(F)cc1
 : ? | -6 | 6.5 | 52 | ? | -12
COC(=O)c1ccc(N2NC(=O)/C(=C/c3ccc(-c4ccc(Cl)c(C(=O)O)c4)o3)C2=O)cc1
 : 3 | -7 | -0.5 | 0 | -26 | 1
CCCCC[n+]1ccn(C2=C([O-])c3ccccc3C(=O)/C2=N\S(=O)(=O)c2ccc(Br)cc2)c1
 : · | 19 | 0.6 | 14 | -1 | -11
Cc1cccc(S(=O)(=O)Nc2ccc(-c3nc4ccc(C)cc4s3)cc2)c1
 : 5 | 13 | 1.4 | 5 | 1 | -1
COc1ccc(C=O)cc1CN1CCCN(Cc2ccc(Cl)cc2)S1(=O)=O
 : 8 | -17 | 2.2 | 49 | 8 | -5
Cc1ccc(O)c(-c2cc3ccccc3[nH]2)c1
 : -1 | 13 | -1.2 | -4 | -13 | 11
CC1CCN(c2ccc3nnc(CCC(=O)NCc4ccco4)n3n2)CC1
 : · | -2 | 0.6 | 18 | 3 | -1
CCOC(=O)c1ccccc1NC(=O)COC(=O)C1CC(=O)N(CCc2ccccc2)C1 (stereo not drawn)
 : 3 | 8 | -0.5 | 5 | -7 | -19
COC(=O)CCCC1=CC2=C(c3ccccc3)C(=O)C(C)(OC(=O)C3CCCC3)C(=O)C2=CN1CCc1ccccn1 (stereo not drawn)
 : 0 | -5 | -0.2 | 20 | -7 | ?
Cn1c(N)c(C(=O)COC(=O)c2nc(Cl)ccc2Cl)c(=O)n(C)c1=O
 : ? | 5 | -0.6 | 23 | -25 | 3
CC(=O)c1ccc(N2CCN(S(=O)(=O)c3c(C(=O)N4CCCCC4)c(C)n(C)c3C)CC2)cc1
 : -8 | -10 | 0.1 | 13 | 4 | 7
C[C@@H](Nc1nc(-c2ccccc2)nc2c1oc1ccccc12)C(=O)O
 : -12 | -4 | 3.8 | 0 | -6 | 22
CCOC(=O)c1cc(C)n(Cc2ccccc2)c1C
 : -5 | -5 | 1.5 | 2 | -13 | -29
O=C(Nc1cc(C(F)(F)F)ccc1N1CCCC1)c1ccc2c(c1)OCO2
 : -4 | -11 | 1.5 | 4 | -4 | -22
C=CCn1c(SCC(=O)Nc2ccc3c(c2)OCO3)nnc1-c1ccccc1
 : -2 | -11 | 2.7 | 3 | 6 | 3

(more compounds)
Every second line gives: CtBP-E1A blk | D2 potentiator | TRPML1 ag | TRPML1 blocker | Six1-Eya2 inh | TRPV1 PAM
CCCN1/C(=C(/C#N)C2=NS(=O)(=O)c3ccccc32)N(C)c2ccccc21
 : 6 | -14 | -0.5 | -6 | 1 | -22
FC(F)(F)c1nnc2sc(-c3ccco3)nn12
 : -2 | -10 | 0.1 | 13 | 17 | -7
COCC(C)NCc1cccc(C)c1 (stereo not drawn)
 : 15 | -5 | -0.7 | 13 | 3 | -5
O=C(NC(Cc1ccc(O)cc1)C(=O)O)c1ccc2c(c1)OCO2 (stereo not drawn)
 : 11 | -1 | 1.9 | -4 | 2 | 2
N#Cc1cccc(CSc2nnc(CCCO)n2-c2ccccc2)c1
 : 4 | -8 | 0.4 | -21 | 10 | -1
O=C(CN1CCCCC1)Nc1nc(-c2ccccc2)cs1
 : -3 | -9 | 1.9 | -7 | -8 | 6
Cc1cccc(C)c1NC(=O)CNC(=O)Cc1ccccc1[N+](=O)[O-]
 : 2 | 1 | 0.4 | 24 | 4 | 0
CC(C)Oc1cccc(C(=O)NC(=S)Nc2ccc(N3CCN(C)CC3)cc2)c1
 : · | -6 | 1.5 | 23 | -5 | 11
CC(C)(C)n1nnnc1C(c1cc2cc3c(cc2[nH]c1=O)OCCO3)N1CCSCC1 (stereo not drawn)
 : 3 | 3 | -0.4 | -7 | -1 | 5
Cc1ccccc1-c1nc(CN2CCCC2c2ccc(F)cc2)c(C)o1 (stereo not drawn)
 : -4 | -7 | -0.7 | -9 | -15 | -11
NC(=O)c1ccccc1NC(=S)NC(=O)CCc1ccccc1
 : 5 | -28 | 0.2 | 0 | 2 | 21
COc1ccc(Nc2nc3ccccc3nc2C)cc1
 : 10 | -26 | -0.4 | 16 | -2 | -7
COc1ccc([C@H]2CC(=O)C=C(c3ccc4ccccc4c3)C2)cc1OC
 : 6 | -2 | 1.8 | -5 | -2 | 9
Cc1c(NC(=O)CN(c2ccccc2)S(=O)(=O)c2ccc(F)cc2)c(=O)n(-c2ccccc2)n1C
 : -2 | 9 | 0.7 | 2 | 4 | -4
O=C(NC1=NCCS1)C1CCN(S(=O)(=O)c2cc([N+](=O)[O-])ccc2Cl)CC1
 : 6 | 18 | 0.0 | 22 | -19 | ·

(further entries)
Every second line gives: CtBP-E1A blk | D2 potentiator | TRPML1 ag | TRPML1 blocker | Six1-Eya2 inh | TRPV1 PAM
COc1ccc(Nc2nnc(-c3ccncc3)s2)cc1Cl
 : 10 | -9 | -0.1 | -4 | 19 | -36
N#Cc1c(NC(=O)c2ccc([N+](=O)[O-])o2)sc2c1CCC2
 : -4 | 1 | -1.4 | 5 | -19 | -4
Cc1ccccc1OCCC(=O)OCC(=O)NC1CCCCC1
 : 4 | 9 | -0.5 | -6 | 7 | -13
Cc1nc2ccccc2c2c1C(=O)N(C(C)C)C2=O
 : 6 | 5 | 0.9 | 11 | -7 | -15
Cc1nnc(SCC(=O)Nc2ccccc2)[nH]c1=O
 : 4 | -2 | -0.5 | 5 | 3 | 5
O=C(c1ccc(=O)[nH]n1)N1CCN(S(=O)(=O)c2ccc3ccccc3c2)CC1
 : 0 | 4 | -0.4 | -8 | -18 | -3
CCOc1ccc(-c2cc(C(=O)NCCOC)[nH]n2)c(C)c1
 : -5 | -2 | -0.7 | · | 4 | ·
O=C(OCc1nnc(-c2ccccc2)o1)c1cccc(S(=O)(=O)N2CCOCC2)c1
 : 1 | 8 | -0.5 | -15 | -6 | 1
N=C1C(c2nc3ccccc3s2)=C(O)CN1CCCO
 : -2 | -1 | -0.9 | -4 | -1 | 2
C=CCOc1ccc(CN(C)CC(O)COc2ccc(CCC(C)=O)cc2)cc1 (stereo not drawn)
 : 1 | -8 | 0.3 | -12 | 6 | 0
O=C(Nc1ccccc1F)C1CCN(S(=O)(=O)c2cccnc2)CC1
 : -4 | -7 | -0.2 | 24 | 2 | 1
CC(C)CN(CC(C)C)CC(O)CN(c1ccccc1)S(=O)(=O)c1ccccc1[N+](=O)[O-] (stereo not drawn)
 : -9 | -6 | 1.2 | 0 | -18 | -19
O=C(Cn1nnc(-c2ccccc2)n1)N1CCN(S(=O)(=O)c2ccc(Cl)cc2)CC1
 : -5 | -6 | 2.1 | -2 | 1 | -7
CC(C)C(OC(=O)c1nsc(Cl)c1Cl)C(=O)NCc1ccc2c(c1)OCO2 (stereo not drawn)
 : 1 | -1 | -0.4 | 17 | -2 | 11
COc1cc(OC)c(C2Nc3ccccc3NC3=C2C(=O)CC(C)(C)C3)cc1OC (stereo not drawn)
 : 2 | 4 | -0.5 | -3 | -1 | 9
CCC(C)N(C(=O)Cn1nnc(-c2ccc(Cl)cc2)n1)C1CCS(=O)(=O)C1 (stereo not drawn)
 : -1 | 7 | 0.9 | 9 | 13 | 6
O=c1c2oc3ccccc3c2ncn1Cc1ccccc1Cl
 : -6 | -4 | 0.9 | -8 | 4 | 27
COc1ccc(NS(=O)(=O)c2cc(NC(=O)c3cc(=O)c4ccccc4o3)ccc2OC)cc1
 : 16 | 2 | -0.5 | 7 | -25 | ?
